High-throughput results deposited in PubChem BioAssay by several laboratories.
ugtP null kill: growth inhibition of ugtP-null S. aureus, primary screen, RN4220 ugtP deletion, OD600. 16 h; some inactives read as strong as hits. growth inhibition, % (test concentration not listed). AID 1259309, 2017. actives 0.54% (n = 330,000);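 active = z-score under -3 and OD600 up to 0.15 on both plates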;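 also: plate controls were untreated wells for no effect and antibiotic for full effect; wells of about 80 µL received 100 nL stock; the first replicate is given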
BJeLR viability: MLPCN primary cell-based screen for lethality selective to Ras in HRASV12 cells; BJeLR (HRASV12) viability, CellTiter-Glo ATP luminescence, 48 h; reference of the scale not given here; actives 0.17% (n = 300,000); inhibition, % (test concentration not listed);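 active = replicate mean above 50%; inconclusive = above 50% but judged a plate artefact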;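 also: 50 nL library stock added to about 25 µL; numbers are from one replicate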
Autofluor counter: compound fluorescence in toxin protease inhibitor counterscreen | compound autofluorescence counterscreen, microsphere flow cytometry; hits give high values | fluorescence intensity (no concentration beside the values) | actives 3.1% (n = 360,000) | AID 624483;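 active = at least 3 SD above the mean of all compounds, about 16000 in these data; inconclusive = too few beads counted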;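 also: 100 nL of 1 mM stock went into each well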
PrP 5UTR inh: inhibition of PrP 5' UTR reporter expression; cell-based PrP 5' UTR mRNA reporter, plate reader; inhibition, % (no concentration beside the values); actives 0.35% (n = 340,000); AID 488862, 2010;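 active = every replicate at 50% or more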;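 also: 0 = median of the neutral control wells; tested in H4 reporter cells; numbers are from one replicate; inactives centre near -14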
Mtb hypoxia rep: PubChem AID 1159583; M. tuberculosis hypoxia-regulated fluorescent reporter, fluorescence; fluorescence inhibition, % (test concentration not listed); actives 0.1% (n = 300,000);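 active = 35 to 45% if threefold the growth effect, above 45% if 1.5-fold the growth effect; inactive = the rest, general growth blockers included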;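 also: wells of about 50 µL received 100 nL stock; 0% = vehicle wells and 100% = reference inhibitor wells; whole bacteria with a GFP reporter of the hypoxia response; strong numbers were not always called active; many hits fall short of the cut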
RN4220 kill: growth inhibition of S. aureus RN4220, primary screen, OD600. 16 h. AID 1259311, 2017. actives 0.33% (n = 330,000). inhibition, % (no concentration beside the values);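 active = z-score of -3 or lower and OD600 up to 0.18 on both plates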;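 also: plate controls were untreated cells for no effect and reference antibiotic for full effect; stock transfer was 100 nL into about 80 µL; one replicate is shown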
Mtb hypoxia rep growth: second read-out of Mtb hypoxia rep, no call of its own (marks repeat the call); growth inhibition, %; measured here: M. tuberculosis growth (absorbance);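 0% = vehicle and 100% = reference antibiotic; read after six days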
* hit, by the source's call; ? = inconclusive; . = not tested or not shown.

SMILES | ugtP null kill | BJeLR viability | Autofluor counter | PrP 5UTR inh | Mtb hypoxia rep | Mtb hypoxia rep growth | RN4220 kill
COc1ccc(C(=O)NCC(C)(C)CNC(=O)c2ccc(OC)c(OC)c2)cc1OC | 6 | 0 | 5743 | 3 | 10 | 11 | 1.3
CCOC(=O)C1=C(Nc2ccccc2)OCC1=O | -6 | 7 | 5356 | -14 | -1 | 6 | 7.6
O=C(Cc1cccs1)Nc1nnc(SCc2ccc(F)cc2)s1 | -1 | -1 | 2110 | -4 | 3 | 3 | 3.7
CCOC(=O)C1=C(C)NC(SCc2cc(=O)[nH][nH]2)=C(C#N)C1c1cccs1 (centres undefined) | 9 | 1 | 9044 | -38 | 11 | 0 | -2.1
C=CCc1cccc(C=Nc2ccc(Br)cc2)c1O | 5 | 11 | 2730 | -20 | 10 | 8 | -1.1
COc1ccc(/C=N/NC(=O)c2ccc(CSc3nc(C)cc(C)n3)cc2)cc1O | . | 0 | 2103 | -8 | . | . | .
C=CCOc1ccc(CNC(C)(C)CO)cc1OCC | -4 | -12 | 3019 | -5 | 5 | -4 | -19
CCOC(=O)N1CCN(C(=O)C2CCN(S(=O)(=O)c3ccc(Cl)cc3)CC2)CC1 | -4 | 0 | 9781 | -20 | 17 | 4 | 3.3
CC(C)N1C(=O)/C(=C/c2nc3ccccc3c(=O)n2-c2ccccc2)c2ccccc21 | -3 | 3 | 3175 | -12 | 16 | 5 | -11
COc1ccccc1CNC(=O)CCCNC(=O)Cn1cnc2sc(C)c(C)c2c1=O | 3 | 4 | 5875 | -9 | 6 | 0 | 2.9
Cc1ccc(S(=O)(=O)N2CCN(C(=O)COC(=O)Cc3ccc(Cl)cc3)CC2)c(C)c1 | -1 | . | 8481 | -12 | 2 | -1 | 0.8
Cc1ccc(CNC(=O)Cn2nnc3ccccc3c2=O)cc1 | -1 | 3 | 4148 | -1 | 4 | 16 | 5.2
CCCNC(=O)CCc1c(C)nc2c(c(C)nn2-c2ccccc2)c1C | 7 | -6 | 3592 | -4 | 4 | 2 | 3.7
Cc1ccc(-c2nn(-c3ccccc3)cc2C(=O)OCC(=O)Nc2ncc(Cl)cc2Cl)cc1 | -6 | 13 | 2071 | -1 | 9 | 6 | 2.9
Cc1cc(C)n(-c2ccc(C(=O)N3CCN(c4ccccn4)CC3)cc2)n1 | 3 | . | 5826 | -8 | 4 | 11 | 1.0
COc1ccc(-c2nc(C)sc2CC(=O)O)cc1 | 3 | . | 3644 | -7 | . | . | 1.6
Cc1ccc(COC(=O)CN2C(=O)NC3(CCCC3)C2=O)cc1 | 2 | . | 4165 | -24 | 11 | 2 | 7.2
Cc1ccc(NS(=O)(=O)c2ccc(Cl)c(NC(=S)NC(=O)C3CCCCC3)c2)cc1Cl | 20 | -3 | 2556 | -35 | -3 | 6 | -0.2
COC(=O)C1=C(c2ccc(F)cc2OCc2ccccc2)CC2CCC1N2C(=O)NCCCc1ccccc1 (centres undefined) | 9 | . | . | . | 6 | -17 | -9.4
Cc1ccc(CN(C)C(=O)c2cccc(S(=O)(=O)N3CCCC3)c2)o1 | 3 | . | 4374 | -8 | 9 | 7 | 7.6
COc1ccccc1OCC(=O)NNC(=O)c1cccs1 | 8 | -7 | 2211 | -7 | 10 | 0 | 10
Cc1cc(NC(=O)C2CC=CCC2C(=O)O)no1 (centres undefined) | 7 | -10 | 7840 | -14 | 4 | 10 | -0.2
O=C(NC(=S)Nc1ccc(-c2ccc(CO)o2)cc1)c1cccs1 | -5 | . | 4469 | -40 | . | . | 18
CN(CC(=O)Nc1c(Cl)cccc1Cl)C(=O)c1n[nH]c2ccccc12 | 2 | -8 | 5807 | -11 | 1 | 4 | 4.6
CCOc1ccccc1NC(=O)C1CCCN1C(=O)OCc1ccccc1 (centres undefined) | -2 | -3 | 4589 | -17 | . | . | -1.9
O=S(=O)(Nc1cc(Sc2ncn[nH]2)c(O)c2ccccc12)c1ccccc1 | -10 | . | 4065 | -18 | -7 | -4 | 17
Cc1[nH]c2ccccc2c1C(=O)CSC(=S)N(C)C1CCCCC1 | 5 | -2 | 2504 | -16 | 0 | -8 | 4.4
C/C(=N\NC(=O)COc1ccc(C)cc1C(C)C)c1cc2ccccc2o1 | . | 2 | 2325 | -9 | . | . | .
OCCOCCNc1ncnc2c1cnn2-c1ccc(Cl)cc1 | 2 | 5 | 5021 | -111 | . | . | 1.8
CC12CCC(C(=O)NCc3ccc4c(c3)OCO4)(CC1=O)C2(C)C (centres undefined) | 5 | -2 | 3487 | 17 | . | . | 2.1

A draw from above in order of count of non-hydrogen atoms, high to low:
SMILES | ugtP null kill | BJeLR viability | Autofluor counter | PrP 5UTR inh | Mtb hypoxia rep | Mtb hypoxia rep growth | RN4220 kill
COC(=O)C1=C(c2ccc(F)cc2OCc2ccccc2)CC2CCC1N2C(=O)NCCCc1ccccc1 (centres undefined) | 9 | . | . | . | 6 | -17 | -9.4
COc1ccccc1CNC(=O)CCCNC(=O)Cn1cnc2sc(C)c(C)c2c1=O | 3 | 4 | 5875 | -9 | 6 | 0 | 2.9
Cc1ccc(CN(C)C(=O)c2cccc(S(=O)(=O)N3CCCC3)c2)o1 | 3 | . | 4374 | -8 | 9 | 7 | 7.6

The list continues.
SMILES | ugtP null kill | BJeLR viability | Autofluor counter | PrP 5UTR inh | Mtb hypoxia rep | Mtb hypoxia rep growth | RN4220 kill
O=C(CCS(=O)(=O)c1ccc(Br)cc1)N1CCN(c2ccccc2F)CC1 | 6 | . | 4790 | -19 | . | . | -1.8
CC(=O)Nc1ccc(S(=O)(=O)N2CCN(c3ccc([N+](=O)[O-])c(NCCN4CCOCC4)c3)CC2)cc1 | 2 | 1 | 2628 | -12 | -7 | -12 | -0.4
COc1ccc(CN(C)C(=O)Cn2cnc3c(OCc4ccccc4)ncnc32)cc1OC | -7 | . | 3830 | -9 | -10 | -7 | 8.7
Cc1cccc(C2c3[nH]c4ccccc4c3CCN2C(=O)c2cc3c([nH]c2=O)CCCC3)n1 (centres undefined) | -2 | 2 | 4453 | -21 | -4 | 7 | 7.0
COc1ccc(Cc2nnc(NC(=O)c3cccc(C)c3)s2)cc1 | -5 | 6 | 4655 | -34 | 7 | -2 | -1.8
CCOC(=O)C1=C(C)N(Cc2ccccc2)C(=O)NC1c1ccc(OC)cc1 (centres undefined) | -5 | -1 | 4626 | -12 | . | . | 0.4
O=C(COC(=O)Cc1ccc(S(=O)(=O)N2CCOCC2)s1)Nc1ccccc1 | 4 | . | 3971 | -2 | 5 | 9 | -0.2
COc1cccc(C(=O)NC2CCCc3ccccc32)c1OC (centres undefined) | 2 | 2 | 3560 | 7 | 9 | 13 | 14
CCCOc1ccc(-c2c(C(=O)NN=Cc3ccc(C)cc3)nnn2-c2nonc2N)cc1 | 25 | . | . | . | 7 | 11 | -1.9
O=C(O)c1ccc(Br)cn1 | -2 | -11 | 2065 | -11 | 2 | -5 | 1.0

Of the compounds above, these have an NH in an aromatic ring:
SMILES | ugtP null kill | BJeLR viability | Autofluor counter | PrP 5UTR inh | Mtb hypoxia rep | Mtb hypoxia rep growth | RN4220 kill
CCOC(=O)C1=C(C)NC(SCc2cc(=O)[nH][nH]2)=C(C#N)C1c1cccs1 (centres undefined) | 9 | 1 | 9044 | -38 | 11 | 0 | -2.1
CN(CC(=O)Nc1c(Cl)cccc1Cl)C(=O)c1n[nH]c2ccccc12 | 2 | -8 | 5807 | -11 | 1 | 4 | 4.6
O=S(=O)(Nc1cc(Sc2ncn[nH]2)c(O)c2ccccc12)c1ccccc1 | -10 | . | 4065 | -18 | -7 | -4 | 17
Cc1[nH]c2ccccc2c1C(=O)CSC(=S)N(C)C1CCCCC1 | 5 | -2 | 2504 | -16 | 0 | -8 | 4.4
Cc1cccc(C2c3[nH]c4ccccc4c3CCN2C(=O)c2cc3c([nH]c2=O)CCCC3)n1 (centres undefined) | -2 | 2 | 4453 | -21 | -4 | 7 | 7.0

(cont.)
SMILES | ugtP null kill | BJeLR viability | Autofluor counter | PrP 5UTR inh | Mtb hypoxia rep | Mtb hypoxia rep growth | RN4220 kill
COc1ccccc1N1C(=O)C2CC(C)=C(C)CC2C1=O (centres undefined) | 6 | 3 | 5323 | -13 | 11 | 7 | 3.1
COc1cc(OC)cc(C(=O)NC(=S)N(Cc2ccccc2)C(C)C)c1 | 22 | 2 | 3439 | -8 | 6 | 3 | -0.6
COCCCNC(=O)CCCn1c(=O)c2ccccc2n(CC(=O)Nc2c(C)cccc2C)c1=O | -3 | 3 | 4776 | -10 | . | . | -0.4
COc1cc(C)c(C(C)C)cc1S(=O)(=O)N1CCOCC1 | 3 | -6 | 3886 | -4 | . | . | 11
CC(C)NC(=O)COC(=O)CNC(=O)c1cc(Cl)cc([N+](=O)[O-])c1 | 3 | -8 | 2190 | -35 | 13 | 12 | 1.9
COc1ccc(S(=O)(=O)Cc2ccc(C(=O)N3CCOCC3)o2)cc1 | 15 | -2 | 4023 | 71* | . | . | 3.8
O=C(Cc1ccccc1)N1CCN(C/C=C/c2ccccc2)CC1 | . | -5 | 2942 | -25 | . | . | .
Cn1cccc1CNC(=O)Nc1ccccc1 | 4 | 1 | 8163 | -23 | 3 | 1 | 1.3
O=C(c1cc(COc2c(F)cccc2F)on1)N1CCN(C2CCCCC2)CC1 | 0 | 3 | 4913 | 4 | 1 | -12 | 1.9
CCN(CC(=O)Nc1ccccc1OC)C(=O)C1CCC1 | 7 | -21 | ? | -24 | 0 | -6 | 3.2
COc1ccc(C(=O)c2c3ccc(C(F)(F)F)cc3[n+]([O-])n2CCCN)cc1 | 5 | -3 | 2874 | -5 | 4 | 6 | 8.0
CC(Sc1nnnn1C)C(=O)Nc1ccccc1 (centres undefined) | -1 | 3 | 4532 | -7 | -2 | -1 | 0.2
CC(=O)NC1(c2cccc(F)c2)CCN(CC(=O)NC2CCCCC2)CC1 | 5 | -1 | 3933 | -11 | 9 | 4 | -1.2
COC(=O)CC1(c2ccccc2)C(=O)c2ccccc2C1=O | 6 | -3 | 16568* | -1 | 17 | 1 | 7.8
Cn1c(-n2c(CCCN3C(=O)c4ccccc4C3=O)nc3ccccc3c2=O)nc2ccccc21 | -12 | 1 | 5530 | -16 | . | . | 3.5
CCN1C(=O)c2ccccc2S(=O)c2ccc(C(=O)N3CCCC3)cc21 (centres undefined) | -5 | 4 | 6117 | -18 | 2 | 12 | -6.5
Cc1nc(N2CCN(Cc3ccc4c(c3)OCO4)CC2)nc2c1C(=O)CC(c1ccco1)C2 (centres undefined) | 17 | 3 | ? | -3 | 0 | 2 | 3.0
CC(C)Sc1nc2c(c(=O)n1C)SC(C)C2 (centres undefined) | 15 | -10 | 5686 | -7 | 1 | 8 | 24
CCOc1ccc(S(=O)(=O)N(C)C)cc1-c1nc2c(C(C)(C)C)nn(C)c2c(=O)[nH]1 | 2 | -5 | 10235 | 2 | 1 | 4 | 1.7
Cc1ccc(C(=O)N2CCN(S(=O)(=O)c3ccc(C(C)C)cc3)CC2)s1 | 2 | 9 | ? | -15 | 12 | 3 | 3.7
COc1ccc(CN2CCCCCC2)cc1OC | 5 | -5 | . | . | -2 | 5 | 3.4

Random draw from the library; about 4% have a hit in one of these screens.
